Tb PFK block = qHTS Assay to Find Inhibitors of T. brucei phosphofructokinase. ATP-dependent 6-phosphofructokinase (Trypanosoma brucei brucei), O15648. T. brucei PFK, ADP-Glo luminescence. Potency, µM (doses to about 57.5 µM), for the others: at the highest dose activity, negative = inhibition, usual class: inhibitors. 0.17% of 330,000 active;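 note: potency is the fitted concentration of half-maximal effect; 0% = uninhibited 1x PFK enzyme wells and -100% = no-enzyme wells; nearly all actives have a fitted effect of over 60% in size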
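Activity is normalized to no-enzyme wells (full inhibition) and 1.25 nM enzyme wells (no inhibition). Reaction: 0.5 mM F6P, 0.1 mM ATP, 45 min RT, ADP-Glo luminescence; concentration-response curves fitted and classed by quality.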
Eya2 inh = qHTS Assay for Inhibitors of the Phosphatase Activity of Eya2; Protein phosphatase EYA2 (Homo sapiens), O00167; recombinant Eya2, OMFP fluorescence dephosphorylation (OMFP is methylfluorescein phosphate); Potency, µM (top dose mostly 76.9 µM), for the others: at the highest dose activity, negative = inhibition, hits mostly inhibitors; 0.006% of 330,000 active; AID 488837, 2010; note: potency is the fitted concentration of half-maximal effect; % is set by controls: 0 for no effect and ±100 for the full control effect
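Eya2 protein (added as 0.2 uM solution) was preincubated with compound for 10 min at ambient temperature in 50 mM HEPES pH 7.5, 50 mM NaCl, 5 uM MgCl2, 0.05% BSA, 1 mM DTT. OMFP (added at 50 uM) then reacted 10 min; fluorescence read at 485/525 nm.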
ELG1 DNA repair = qHTS screen for small molecules that inhibit ELG1-dependent DNA repair in human embryonic kidney (HEK293T) cells expressing luciferase-tagged ELG1. HEK293T ELG1-luciferase reporter, luminescence, 16 h; DNA damage induced by 5-fluorouridine. Potency, µM (doses to about 46.1 µM), for inactives: top-dose activity change, negative = inhibition, most hits filed as inhibitors. 2.3% of 330,000 active. AID 504467, 2011; note: potency is the fitted concentration of half-maximal effect; % is set by controls: 0 for no effect and ±100 for the full control effect; nearly all actives have a fitted effect of over 55% in size
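Cells (2,000 per well) received 5-fluorouridine plus test compound or DMSO and were incubated 16 hr at 37 °C, 5% CO2. Luciferase activity was read by luminescence 30 min after ONE-Glo addition; signal suppression marked inhibition of damage-induced ELG1 function.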
ASM inhibitor = Inhibitors of Secretory Acid Sphingomyelinase (S-ASM): qHTS; Sphingomyelin phosphodiesterase (Homo sapiens), P17405; placental ASM, HMU-PC fluorogenic substrate, 60 min; Potency, µM (series often up to 57.5 µM), for inactives: at the top dose activity change, negative = inhibition, actives largely listed as inhibitors; 0.006% of 340,000 active; AID 504937, 2011; note: potency is the fitted concentration of half-maximal effect
Target sequence (P17405 47-631 limits assumed): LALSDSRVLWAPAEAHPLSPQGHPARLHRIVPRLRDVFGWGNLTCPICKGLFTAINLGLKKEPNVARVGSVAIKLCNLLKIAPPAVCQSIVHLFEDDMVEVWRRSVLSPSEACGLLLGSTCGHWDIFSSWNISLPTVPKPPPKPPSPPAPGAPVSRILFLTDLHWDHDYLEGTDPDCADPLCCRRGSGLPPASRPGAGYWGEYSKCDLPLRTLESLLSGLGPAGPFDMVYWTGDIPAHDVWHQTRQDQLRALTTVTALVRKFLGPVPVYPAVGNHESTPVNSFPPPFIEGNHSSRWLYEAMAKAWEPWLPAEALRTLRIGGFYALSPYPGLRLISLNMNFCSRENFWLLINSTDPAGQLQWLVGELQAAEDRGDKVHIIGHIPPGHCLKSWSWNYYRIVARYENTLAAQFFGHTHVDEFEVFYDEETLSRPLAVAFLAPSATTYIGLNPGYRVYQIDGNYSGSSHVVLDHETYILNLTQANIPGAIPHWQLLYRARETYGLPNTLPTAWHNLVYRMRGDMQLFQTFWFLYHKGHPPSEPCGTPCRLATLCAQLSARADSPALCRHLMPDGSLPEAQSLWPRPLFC
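Human placenta-derived ASM enzyme was preincubated with compound for 10 minutes at room temperature, then given fluorogenic substrate HMU-PC0 (9 uM final) for 60 minutes at 37 °C; a pH 10 stop preceded fluorescence reading at Ex 386/Em 447 nm.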
Mito fusion act = qHTS Assay for Small Molecule Inhibitors of Mitochondrial Division or Activators of Mitochondrial Fusion; Potency, µM (highest dose often 46.1 µM), for the others: top-dose growth rescue (activation), actives largely listed as activators; S. cerevisiae fusion-defective mutant growth rescue, CellTiterGlo 48 h; 0.23% of 320,000 active;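 note: potency is the fitted concentration of half-maximal effect; % of control where 0% means no effect; nearly all actives have a fitted effect of over 45% in size; temperature-sensitive fusion mutants such as fzo1-1 at 37 °C on non-fermentable ethanol glycerol medium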
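S. cerevisiae fusion-defective temperature-sensitive mutants (e.g. fzo1-1, mgm1-5) grown 48 h at 37C in YPEG (ethanol/glycerol non-fermentable) medium with 23 nl compound per well; growth rescue read as CellTiterGlo luminescence.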
AT treatment = qHTS Assay for Identifying a Potential Treatment of Ataxia-Telangiectasia | […] A-T fibroblasts, KAP-1 phosphorylation AlphaLISA; neocarzinostatin DNA damage 30 min before lysis | Potency, µM (top dose mostly 57.5 µM), for the others: at the top dose activation, most hits filed as activators | 0.19% of 320,000 active; note: potency is the fitted concentration of half-maximal effect; % of control where 0% means no effect; nearly all actives have a fitted effect of over 45% in size
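ATM-like activity read as KAP-1 phosphorylation via AlphaLISA donor/acceptor antibody pairs after lysis and 6 hr at 25C. Cells were ATM-null patient fibroblasts ([…], hTERT), dosed 60 min, then exposed to the DSB inducer NCS for 30 min.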
TSG101-PTAP inh = qHTS Assay for Iinhibitors of HIV-1 Budding by Blocking the Interaction of PTAP/TSG101 | Tumor susceptibility gene 101 protein (Homo sapiens), Q99816 | Fluorescence polarization, FITC-PTAP peptide / Tsg101 binding | Potency, µM (series often up to 115 µM), for the others: top-dose activity change, negative = inhibition, actives largely listed as inhibitors | 340,000 tested, under 10 active | AID 493005, 2010; active = well fitted inhibition curve with a large enough effect in the main read-out, with a control signal flat, not every such curve was filed as active; inconclusive = small, poorly fitted or top-dose-only effect, or effect the other way, or a change in a side signal; inactive = no such curve, though single readings can be large or run the other way; note: potency is the fitted concentration of half-maximal effect; % of control where 0% means no effect
Target sequence (Q99816 whole entry, looked up): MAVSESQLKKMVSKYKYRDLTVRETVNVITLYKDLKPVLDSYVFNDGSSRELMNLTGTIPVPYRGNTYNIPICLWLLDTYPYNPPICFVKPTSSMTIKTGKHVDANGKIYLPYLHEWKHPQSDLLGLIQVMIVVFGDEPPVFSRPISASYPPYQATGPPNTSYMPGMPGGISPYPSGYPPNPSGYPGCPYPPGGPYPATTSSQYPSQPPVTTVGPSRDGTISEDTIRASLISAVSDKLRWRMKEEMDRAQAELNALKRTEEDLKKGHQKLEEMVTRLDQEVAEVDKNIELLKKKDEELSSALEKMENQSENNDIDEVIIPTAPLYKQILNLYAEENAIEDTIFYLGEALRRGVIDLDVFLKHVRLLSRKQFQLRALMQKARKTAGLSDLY
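Steps: Tsg101 binding domain dispensed (10 uM final), compounds pinned in DMSO, FITC-labeled PTAP-motif peptide added (50 nM final); after 20 min binding at room temperature, polarization measured.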
TCR activator = Activators of T cell receptors: qHTS campaign; primary human leukocytes, anti-CD3, IL-2 HTRF, 48 h; Potency, µM (highest dose often 9.22 µM), without a hit: top-dose activation of IL-2 secretion, most hits filed as activators; 330,000 tested, under 10 active; AID 504894, 2011; note: % of control where 0% means no effect
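48 hr co-incubation of compounds, a-CD3 beads and primary human leukocytes; IL-2 quantified homogeneously by HTRF with anti-IL-2 K and d2 conjugates.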
a7 integrin act = qHTS for Activators of Integrin-Mediated Alleviation for Muscular Dystrophy; Potency, µM (highest dose often 38.3 µM), for inactives: top-dose activation, hits mostly activators; alpha7betagal myoblasts, beta-gal FDG fluorescence, 48 h; 0.064% of 350,000 active; AID 624291, 2012;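 note: potency is the fitted concentration of half-maximal effect; 100% = response of the positive control SU9516; nearly all actives have a fitted effect of over 60% in size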
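Alpha7betagal+/- myoblasts (passage 13) were plated 16-24 hr, then exposed to compounds (1:260 dilution of DMSO stock) for 48 hours at 37C. After MPER lysis, β-galactosidase reporter activity was read as FDG fluorescence (ex 480/em 540) after 30 minutes.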
Chronic BCR inh = qHTS Assay to Find Inhibitors of Chronic Active B-Cell Receptor Signaling; ABC-DLBCL IkBa-CBG/CBR reporter, luminescence ratio, 4 h; 0.05% of 340,000 active; Potency, µM (series often up to 46.1 µM), for inactives: at the highest dose ratio change, negative = lower green/red ratio, most hits filed as inhibitors; active = well fitted inhibition curve with a large enough effect in the signal ratio, with a control signal flat, not every such curve was filed as active; inconclusive = small, poorly fitted or top-dose-only effect, or effect the other way, or a change in a side signal; the % refers to the signal ratio;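 note: potency is the fitted concentration of half-maximal effect; plate controls were basal doxycycline-induced cells for no effect and cells given 10 µM MG132 for full effect; MG132 reads +100%, hits lower the ratio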
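Doxycycline induced both beetle luciferases in TMD8 lymphoma cells; IKK-driven degradation limits the IkappaBalpha-fused green signal, while red luminescence normalises for cell number and nonspecific effects. Compounds tested up to 46 uM, 4 hrs.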
Active calls of the source: *; ? = inconclusive; . = not tested or not shown; & = joins results of further samples; [ ] = another dose, or the depositor's remark. Unless noted, calls come from the whole dose curve; as a rule, active = well fitted curve in the direction sought with a large enough effect; inconclusive = small, poorly fitted or top-dose-only effect, or another doubt; inactive = no such curve, though single readings can be large; an effect the other way counts as inactive or inconclusive. Not all compounds are listed. The share of hits here may be higher or lower than overall.

SMILES	Tb PFK block	Eya2 inh	ELG1 DNA repair	ASM inhibitor	Mito fusion act	AT treatment	TSG101-PTAP inh	TCR activator	a7 integrin act	Chronic BCR inh
CC1=C(OC(=O)c2ccccc2)C(C)(C)C(c2ccc(Br)cc2)OC1=O (stereo not given)	-16%	21%	2%	-9%	2%	1%	0%	-3%	-2%	0%
O=C(O)c1cc2ccc3ccccc3c2oc1=O	?	3%	?	.	7%	5%	-5%	4%[46.1 µM]	-10%	22%
CC1CCN(C(=O)CCNC(=O)Cn2cnc3sc4c(c3c2=O)CCCC4)CC1	-3%	6%	0%	0%	2%	-1%	-3%	2%	-3%	6%
Cc1ccc(N(CC(=O)N2CCN(Cc3ccccc3)CC2)S(C)(=O)=O)cc1C	0%	2%	-13%	-1%	2%	-6%	-2%	0%	-24%	2%
CCOC(=O)c1cccc(-n2cccc2/C=C2\NC(=O)N(CC(=O)O)C2=O)c1	8%	0%	12%	14%	.	2%	0%	2%	.	2%
Cn1ncc(Cl)c1C(=O)Nc1ccncc1	0%	-20%	-13%	1%	-6%	9%	3%	3%[46.1 µM]	15%	2%
Cn1nc(C(=O)NCCc2ccc(Cl)cc2)c2c1-c1ccccc1S(=O)(=O)C2	2%	2%	?	0%	-3%	2%	-4%	-2%	?	-14%
C=CCNC(=O)C1(S(=O)(=O)c2ccccc2)CC=CC1	-2%	9%	-4%	4%	-12%	-2%	1%	6%	37%	-14%
O=[N+]([O-])c1c(NCCO)cc(N2CCC3(CC2)OCCO3)c2nonc12	-5%	5%	-7%	-5%	3%	-4%	-7%	-7%[46.1 µM]	13%	?
C=CCN(c1ccc(F)cc1)S(=O)(=O)c1cc(C(=O)NC2CCC(O)CC2)ccc1Cl (stereo not given)	-2%	-9%	5%	-3%	-7%	6%	0%	10%	?	-1%
COC(=O)C1=CN(c2cccc(C(F)(F)F)c2)C=C(C(=O)OC)C1c1ccc(O)c(OC)c1	1%	-11%	?	-1%	-5%	-9%	-4%	5%	1%	0%
O=C1[C@@H](c2ccccc2)[C@@H](c2ccccc2)N1c1cccnc1	-2%	-11%	17%	-5%	.	10%	-5%	3%[46.1 µM]	-32%	4%
Cc1ccc(-n2c(SCC(N)=O)nnc2-c2ccco2)cc1	-2%	-21%	5%	-1%	2%	-5%	-3%	-37%	?	1%
Cc1cc(C)n(-c2ccc(S(=O)(=O)N3CCOCC3)cc2[N+](=O)[O-])n1	6%	-2%	0%	1%	7%	40µM*	0%	-3%	-2%	4%
C[N+]1(CCCCC[N+]2(C)CCCC2)CCCC1	.	2%	.	.	-36%[inhibitor]	.	.	.	.	.
Cc1ccccc1CNC(=O)CCCn1ncn2c(cc3occc32)c1=O	2%	-15%	12%	1%	?	-5%	1%	4%	-28%	-2%
O=C(/C=C/c1ccc(Cl)c([N+](=O)[O-])c1)Nc1cccc(NC(=O)c2ccco2)c1	-26%	2%	?	-26%	?	-7%	-14%	1%[46.1 µM]	9%	?
COc1cc(C)c(Cl)c(C)c1S(=O)(=O)NCc1ccc2c(c1)OCO2	2%	12%	-10%	-12%	1%	-2%	-9%	8%	34%	-6%
O=C1N=C(O)CN1/N=C/c1ccc(-c2ccc([N+](=O)[O-])cc2)o1	.	-2%	.	-6%	9%	.	-1%	27%	.	.
CNC(C)C(=O)NC(C(=O)N1CCCC1C(=O)Nc1ccc2ncccc2c1)C(C)C (stereo not given)	-6%	5%	?	-5%	-7%	-10%	.	-4%	2%	0%
CC(C)c1ccc(S(=O)(=O)N2CCN(C(=O)n3ccnc3)CC2)cc1	0%	2%	2%	0%	0%	4%	-2%	0%	-3%	1%
NCCCC[C@H](N[C@@H](CCc1ccccc1)C(=O)O)C(=O)N1CCC[C@H]1C(=O)O	-6%&0%	9%&-21%	4%&-4%	-5%&-1%	5%&4%	3%&-31%	-1%&-3%	9%&7%	3%	-5%&2%
COc1ccc(-c2csc3ncnc(N4CCN(c5ccccc5OC)CC4)c23)cc1	0%	5%	13µM*	2%	2%	-9%	0%	-6%	13%	4%
Cc1nn(CC(=O)Nc2ccccc2C(F)(F)F)c(=O)c2cccn12	-14%	-13%	29%	4%	9%	1%	-1%	-36%	-5%	-16%
CC(=O)Nc1ccc(S(=O)(=O)N[C@@H](C)C(=O)OCC(=O)c2ccc[nH]2)cc1	1%	-10%	?	0%	.	8%	1%	3%	-20%	-6%

Reformatted with bars between the fields: three of the compounds above.
mol | Tb PFK block | Eya2 inh | ELG1 DNA repair | ASM inhibitor | Mito fusion act | AT treatment | TSG101-PTAP inh | TCR activator | a7 integrin act | Chronic BCR inh
Cn1ncc(Cl)c1C(=O)Nc1ccncc1 | 0% | -20% | -13% | 1% | -6% | 9% | 3% | 3%[46.1 µM] | 15% | 2%
CC1CCN(C(=O)CCNC(=O)Cn2cnc3sc4c(c3c2=O)CCCC4)CC1 | -3% | 6% | 0% | 0% | 2% | -1% | -3% | 2% | -3% | 6%
O=C(O)c1cc2ccc3ccccc3c2oc1=O | ? | 3% | ? | . | 7% | 5% | -5% | 4%[46.1 µM] | -10% | 22%

Going on with the list:
SMILES	Tb PFK block	Eya2 inh	ELG1 DNA repair	ASM inhibitor	Mito fusion act	AT treatment	TSG101-PTAP inh	TCR activator	a7 integrin act	Chronic BCR inh
COc1ccc(-c2csc3ncnc(N4CCN(S(=O)(=O)c5cccc(C(F)(F)F)c5)CC4)c23)cc1	5%	-4%	?	.	18%	0%	-1%	-3%	-2%	14%
Clc1ccc2c(c1)C(N1CCNCC1)=Nc1ccccc1O2	-4%	-5%&5%	-13%	0%	-34%&-1%[inhibitor]	-15%	3%	-6%	.	1%
Cc1noc(C)c1CSCC(=O)Nc1nc2ccc(F)cc2s1	-6%	-3%	-2%	-1%	0%	8%	-2%	-1%	10%	?
COc1ccc(-c2csc3ncnc(N4CCN(c5ccccc5Cl)CC4)c23)cc1	1%	-7%	13µM*	-7%	-2%	6%	5%	-3%	-11%	0%
CC(C)NCC(O)COc1ccc(CCOCC2CC2)cc1 (stereo not given)	-3%&0%&-3%	0%&2%&-7%&3%	18%	3%	-3%&-2%&23%&-3%	20%	3%	-4%	.	-1%&-9%&-1%
Cc1ccc(NC(=O)Cn2nnc(C(=O)NCc3cccs3)c2N)cc1	0%	-11%	27%	-1%	1%	0%	0%	3%[46.1 µM]	15%	0%
CC(C)CCn1nnnc1CN1CCN(c2ccccc2)CC1	1%	-5%	1%	-4%	2%	3%	-1%	-7%	.	-6%
COc1ccc(/C=C/C(=O)NC(=S)N2CCSCC2)cc1	-1%	3%	?	2%	-6%	-1%	1%	1%	14%	?
O=[N+]([O-])c1c(NCCO)cc(N2CCCCCC2)c2nonc12	4%	-12%	-1%	-13%	1%	-5%	-5%	.	?	-2%
CSc1ccc2c(c1)C(N1CCN(C)CC1)Cc1ccccc1S2 (stereo not given)	-3%	-7%&-29%	25%	-9%&-3%	-66%&-40%[inhibitor]	6%	1%&-4%	11%&-1%	-51%	?
COc1ccc(S(=O)(=O)c2c(O)c3ccc(C(=O)Nc4ccccc4)cc3[nH]c2=O)cc1	?	-1%	1%	-1%	0%	3%	-3%	7%	-30%	3%&-22%
CN(Cc1c(F)cccc1Cl)C(=O)c1cnc2ccccc2n1	-2%	11%	21%	5%	10%	6%	-2%	-4%	-5%	12%
C[N+](C)(C)CCO	.	-3%	.	.	-39%[inhibitor]	.	.	.	.	.

Single records, from the list above. Order of screens: Tb PFK block	Eya2 inh	ELG1 DNA repair	ASM inhibitor	Mito fusion act	AT treatment	TSG101-PTAP inh	TCR activator	a7 integrin act	Chronic BCR inh
Clc1ccc2c(c1)C(N1CCNCC1)=Nc1ccccc1O2 as listed: -4%	-5%&5%	-13%	0%	-34%&-1%[inhibitor]	-15%	3%	-6%	.	1%
CSc1ccc2c(c1)C(N1CCN(C)CC1)Cc1ccccc1S2 (stereo not given) as listed: -3%	-7%&-29%	25%	-9%&-3%	-66%&-40%[inhibitor]	6%	1%&-4%	11%&-1%	-51%	?

Compound activity as filed in PubChem.
